Autofluor counter: flagged as autofluorescent in microsphere protease counterscreen; compound autofluorescence counterscreen, microsphere flow cytometry; active compounds read high; fluorescence intensity (test concentration not listed); 3.1% of 360,000 active;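 active = at least 3 SD above the mean of all compounds, about 16000 in these data; inconclusive = too few beads counted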;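 also: 100 nL of 1 mM stock went into each well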
PrP UTR inh: suppresses PrP 5' UTR mRNA reporter expression; inhibition, % (concentration not given with the values); 0.35% of 340,000 active; cell-based PrP 5' UTR mRNA reporter, plate reader;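 active = every replicate at 50% or more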;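 also: 0 = median of the neutral control wells; tested in H4 reporter cells; numbers are from one replicate; inactives centre near -14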
Numbers without * were called inactive; ? = inconclusive. Not all compounds are listed; rates above refer to the full screens.

smiles | PrP UTR inh | Autofluor counter
C=C[C@@H]1c2c(F)cccc2N(S(=O)(=O)c2ccc(C)cc2)[C@H](c2ccc(C(=O)OC)cc2)C1(C#N)C#N | -20.6 | 3686
CCN1C[C@]2(COC)CC[C@H](OC)[C@@]34C1[C@]1(OCO[C@@]15C[C@H](OC)[C@H]1C[C@@H]3[C@@H]5[C@H]1OC)[C@@H](O)[C@H]24 | 10.5 | 5792
Cc1cccc(NC(=O)CSc2nc3sc(C)cc3c(=O)n2C)c1 | -28.8 | 3991
CCOC(=O)c1cc([N+](=O)[O-])cc([N+](=O)[O-])c1Sc1ncnc2nc[nH]c12 | -25.1 | 3944
O=C1NCCN(CC2CCN(CC3CCCC3)CC2)C1=O | -6.2 | 2892
O=C(NCCN1CCCCC1)/C(=N\O)c1ccccc1 | -13.4 | 3412
c1ccc(-c2nnc3nc(N4CCCCC4)nc(N4CCCCC4)n23)cc1 | -9.6 | 4070
CCN1C[C@@H]2[C@@H]3C(=O)N(C)C(=O)[C@@H]3[C@](CC)(C1=O)N2C(=O)c1ccc(F)cc1 | -19.7 | 4224

The closing two entries of the part before come first, to join the parts.
smiles | PrP UTR inh | Autofluor counter
c1ccc(-c2nnc3nc(N4CCCCC4)nc(N4CCCCC4)n23)cc1 | -9.6 | 4070
CCN1C[C@@H]2[C@@H]3C(=O)N(C)C(=O)[C@@H]3[C@](CC)(C1=O)N2C(=O)c1ccc(F)cc1 | -19.7 | 4224
CCOC(=O)[C@H]1[C@H]2COc3ccc(Cl)cc3[C@@H]2N2C(=O)c3ccc(F)cc3NC(=O)[C@@]12C | -2.9 | 3490
CN(C)c1ccc2c(c1)C(=NO)c1ccccc1-2 | 67.6* | 3692
CCN(N=O)c1ccc(C=C2C=Cc3ccccc32)cc1 | -168.4 | 3339
O=C1C[C@@H]2c3c(cccc3CN1Cc1ccccc1Br)C[C@@H](O)[C@H]2O | -9.1 | 4469
CC(=O)Nc1ccc(C=NNC(=O)CCCC(=O)NN=Cc2ccc(NC(C)=O)cc2)cc1 | -22.1 | 4388
COc1cc(OC)c2c(-c3ccccc3)cc(C3CCCCC3)nc2c1 | 10.1 | 3035
Cn1cc(Br)c(C(=O)N/N=C/c2cc3ccccc3nc2Cl)n1 | -24.5 | 6708
F[B-](F)(F)c1cncc2ccccc12 | 1.6 | 2855

Following part:
smiles | PrP UTR inh | Autofluor counter
CC(C)NC(=O)Nc1cccc2c1O[C@H](CN(C)C(=O)NC1CCCCC1)[C@H](C)CN([C@H](C)CO)C2=O | -0.5 | 3045
Cc1ccc(S(=O)(=O)N(C)C[C@H]2Oc3ccc(NC(=O)Nc4c(C)noc4C)cc3CC(=O)N([C@@H](C)CO)C[C@@H]2C)cc1 | -35.3 | 4464
CC(C)(C)OC(=O)N[C@H](C(=O)OC(C)(C)C)c1ccc2c(c1)OCO2 | -33.2 | 3717
O=C(N[C@@H]1CCC(=O)N(CC[C@H](Sc2ccc(Br)cc2)c2ccccc2)CC1)OCc1ccccc1 | -20.1 | 4041
C#CCOCCOCCOCCNc1nc(N2CCN(C(=O)CCCCCCCCCCNC(=O)Cn3cc(CCCCCN)nn3)CC2)nc(N2CCN(C(=O)CCCCCCCCCCNC(=O)[C@H](CO)n3cc(CCCCCN)nn3)CC2)n1 | -6.9 | 3831
c1ccc(COc2ncnc3c2ncn3CCCN2CCN(c3ccccn3)CC2)cc1 | -19.7 | 3847
C[C@@H]1CN(S(=O)(=O)c2ccc3c(c2)OCCO3)CCN1S(=O)(=O)c1c(F)cccc1F | -7.0 | 3789
COC(=O)[C@@]12CCCCN1[C@H](c1ccc(-c3ccc(Cl)c(Cl)c3)c(OC)c1)[C@H]1C(=O)N(C)C(=O)[C@H]12 | -23.3 | 3835

Next compounds.
smiles | PrP UTR inh | Autofluor counter
O=C1NC(c2ccccc2)C(c2ccccc2)N1 (stereo unspecified) | -6.4 | 4264
O=C1/C(=C/c2ccccc2)CCc2ccc(Cl)nc21 | 1.7 | 3808
CC(C)[C@H](NC(=O)OCc1ccccc1)C(=O)NC(C=O)Cc1ccccc1 (stereo partly specified) | 7.1 | 5134
C=CCC[C@H](Cc1ccc(F)cc1)C(=O)OC[C@@H](NC(=O)[C@@H](CC=C)CC(=O)N[C@H](CO)Cc1ccccc1)C(C)(C)C | -30.3 | 3902
COc1cc(O)c2c(=O)c3c(O[C@H]4O[C@@H](CO)[C@H](O)[C@@H](O)[C@@H]4O)ccc(O)c3oc2c1 | -11.2 | 3754
COc1ccccc1/C=C/C(=O)NCC(=O)N/N=C/c1ccccc1 | -10.8 | 3350
NS(=O)(=O)c1ccc(CNC(=S)Nc2cc(S(=O)(=O)N3CCOCC3)ccc2Cl)cc1 | -0.4 | 3702
CN(C)CCNC(=O)c1cccc2ccc(-c3ccc(-c4ccccc4)cc3)nc12 | -55.4 | 3983

Next part
smiles | PrP UTR inh | Autofluor counter
CC(C)NC(=O)N(C)C[C@H]1Oc2ccc(NC(=O)C3CCCCC3)cc2C(=O)N([C@H](C)CO)C[C@@H]1C | -19.1 | 4161
CCc1ccc(/C(C)=N/NC(=O)c2ccc(-n3cnnn3)cc2)cc1 | -20.4 | 4229
Cc1c(C(C)CCCO)oc(=O)c2c1Oc1c(C)c(C(C)C[C@@H](C)O)oc(=O)c1C2 (stereo partly specified) | -24.1 | 3640
Cn1c(COc2ccccc2)nnc1SCC(=O)Nc1nnc(C2CC2)s1 | -17.4 | 3440
Cc1cc(/C=N\NC(=O)COc2cccc3cccnc23)c(C)n1-c1ccc(Br)cc1 | -23.4 | 2683
CC(C)(C)OC(=O)C[C@H]1C/C=C\C[C@H](CC(=O)N(CCO)Cc2ccccc2)C(=O)N[C@@H](Cc2ccccc2)COC1=O | -15.3 | 3943
CN1C(=O)C(Cc2ccccc2)C(=O)N(C)C1=O | -11.5 | 3647
C#CCOCCOCCOCCNc1nc(N2CCN(C(=O)CCCCCCCCCCNC(=O)[C@H](CCC(=O)O)n3cc(CCCCCN)nn3)CC2)nc(N2CCN(C(=O)CCCCCCCCCCNC(=O)[C@@H]([C@H](C)O)n3cc(C)nn3)CC2)n1 | -6.4 | 3296

The results go on:
smiles | PrP UTR inh | Autofluor counter
NC(=O)[C@@H]1CCNc2c(I)cc([N+](=O)[O-])cc2C(=O)N[C@@H](CCC(=O)O)C(=O)N[C@@H](CO)C(=O)N1 | 0.5 | 3062
O=C(CSc1nncs1)NNC(=O)c1ccco1 | -10.3 | 2789
COc1ccc(S(=O)(=O)Nc2ccc3c(c2)C(=O)N([C@H](C)CO)C[C@H](C)[C@@H](CN(C)C(=O)Nc2ccc(C(F)(F)F)cc2)O3)cc1 | -14.4 | 3714
COc1ccc(CN(C)CCCn2cnc3c(OCc4ccccc4)ncnc32)cc1 | -13.2 | 3559
O=C1C(c2ccccc2)C2C=CC(C2)N1O (stereo unspecified) | -8.7 | 3080
C[C@H](CO)N1C[C@H](C)[C@@H](CN(C)C)Oc2c(NC(=O)CCCCCC(=O)Nc3ccccc3N)cccc2C1=O | -20.0 | 3832
COC(=O)C1=C(C)N(Cc2ccccc2)C(=NCCc2cccnc2)N[C@H]1c1ccc(Br)cc1 | -2.8 | 3045
Cc1cc(=O)[nH]c(NN=Cc2cc(Br)ccc2O)n1 | 14.2 | 4230

(cont.)
smiles | PrP UTR inh | Autofluor counter
CC(C)(C)OC(=O)C[C@@H]1C/C=C\C[C@@H](CC(=O)N[C@@H](CO)Cc2ccccc2)C(=O)N2CCC[C@H]2COC1=O | -19.7 | 4101
Cc1ccc(CNC(=O)[C@]2(C)CCC[C@@]3(C)C4CC[C@@]5(C)C[C@]4(CCC32)CC5=O)cc1 (stereo partly specified) | -8.6 | 3737
CC(NC(=O)c1ccco1)C(=O)N1CCN(S(=O)(=O)c2ccccc2C#N)CC1 (stereo unspecified) | -12.1 | 3691
C=CCn1cnc2c(c1=O)c1nc3ccccc3nc1n2/N=C/c1cccc(OC)c1OC | -9.7 | 4255
CCOC(=O)[C@@H]1[C@H]2COc3ccc(Br)cc3[C@H]2N2C(=O)N(c3ccc(C(F)(F)F)cc3)C(=O)[C@]12C | -12.2 | 3498
CC(=O)Nc1cccc2c1Cc1cc([N+](=O)[O-])ccc1-2 | -9.0 | 3912
O=C(CN1CCN(S(=O)(=O)c2ccc3c(c2)OCCO3)CC1)Nc1ccccc1Br | -14.6 | 3082
CC(=O)Nc1ccc2c(c1)[nH]c(=O)c1ccccc12 | -16.3 | 4007

Next entries:
smiles | PrP UTR inh | Autofluor counter
CCOC(=O)[C@H]1[C@H]2COc3ccc(Br)cc3[C@@H]2N2C(=O)CN(Cc3ccco3)C(=O)[C@@]12C | -15.5 | 3569
CCOc1cc(/C=N/Nc2cccc(C(=O)O)c2)ccc1OCC(=O)N1CCCCC1 | -21.1 | 3460
CC(C)(C)[C@H]1COC(=O)[C@@H](Cc2ccc(F)cc2)C/C=C\C[C@@H](CC(=O)N[C@@H](CO)Cc2ccccc2)C(=O)N1 | -2.8 | 3812
O=C(COC(=O)c1ccc([N+](=O)[O-])o1)Nc1ncc(Cl)cc1Cl | -24.4 | 3236
CCC(C)Sc1ccc([C@H]2N[C@@](C)(C(=O)OC)[C@H]3C(=O)N(CC)C(=O)[C@@H]23)cc1OC (stereo partly specified) | -8.0 | 3144
O=S(=O)(c1cccc2ccccc12)N1CCC2CC1c1cc(Cl)ccc12 (stereo unspecified) | -14.7 | 4135
COC(=O)C1=C(c2ccc(-c3ccccc3)c(F)c2)C[C@@H]2CC[C@H]1N2C(=O)N1CCc2cc(OC)c(OC)cc2C1 | -2.9 | 2804
Nc1ccc(-c2cnc(N)c(C(=O)c3cccnc3)n2)cn1 | 40.2 | 3966

Record cards, from the list above. Values in the order: PrP UTR inh	Autofluor counter
Shown for CCOC(=O)[C@H]1[C@H]2COc3ccc(Br)cc3[C@@H]2N2C(=O)CN(Cc3ccco3)C(=O)[C@@]12C → -15.5	3569
Shown for CC(C)(C)[C@H]1COC(=O)[C@@H](Cc2ccc(F)cc2)C/C=C\C[C@@H](CC(=O)N[C@@H](CO)Cc2ccccc2)C(=O)N1 → -2.8	3812
Shown for CCC(C)Sc1ccc([C@H]2N[C@@](C)(C(=O)OC)[C@H]3C(=O)N(CC)C(=O)[C@@H]23)cc1OC (stereo partly specified) → -8.0	3144

Later entries:
smiles | PrP UTR inh | Autofluor counter
CCOC(=O)[C@H]1[C@H]2COc3ccc(OC)cc3[C@@H]2N2C(=O)c3ccc(Cl)cc3NC(=O)[C@@]12C | -7.3 | 3994
CC(=O)Nc1cccc(/C(C)=N/Nc2ccc(S(=O)(=O)Nc3ccccc3C(=O)O)cc2[N+](=O)[O-])c1 | 7.5 | ?
CC(=O)N1Cc2cnnn2-c2ccccc2C1(C#N)Cc1ccccc1 (stereo unspecified) | 1.4 | 3670
O=[N+]([O-])c1cccc(/C=N\N2CCN(c3ccc(Cl)cc3)CC2)c1 | 2.7 | 5537
CC(=O)OC1CC(OC2C(O)CC(OC3C(O)CC(OC4CCC5(C)C(CCC6C5CCC5(C)C(C7=CC(=O)OC7)C(O)CC65O)C4)OC3C)OC2C)OC(C)C1OC1OC(CO)C(O)C(O)C1O (stereo unspecified) | 94.4* | 4399
CN(C)CCN1C(=O)c2cccc3cc([N+](=O)[O-])cc(c23)C1=O | 66.4* | 2795
C(=N\c1nc2ccccc2[nH]1)/c1cccs1 | -14.4 | 23619*
Cc1noc(C)c1NC(=O)N(C)C[C@H]1Oc2c(NC(=O)Nc3ccccc3)cccc2C(=O)N([C@H](C)CO)C[C@@H]1C | -23.0 | 2807

Later entries.
smiles | PrP UTR inh | Autofluor counter
Cc1ccnc(NC(=O)COc2ccccc2[N+](=O)[O-])c1 | -60.2 | 2465
CC(=O)OC(C)(C)/C=C/C(=O)C(C)(O)C1C(O)CC2(C)C3CC=C4C(CC(O)C(=O)C4(C)C)C3(C)C(=O)CC12C (stereo unspecified) | 80.5* | 3470
Cc1noc(C)c1S(=O)(=O)N(C)C[C@H]1Oc2c(NC(=O)Nc3ccc(C(F)(F)F)cc3)cccc2C(=O)N([C@H](C)CO)C[C@@H]1C | -7.4 | 3762
COc1ccc2c(c1)C(=O)N1[C@H]3c4cc(Br)ccc4OC[C@@H]3[C@H](c3ccccc3)[C@]1(C)C(=O)N2 | -25.0 | 3242
Oc1ccc(C[C@H]2CNC(=S)N2CC2CCCN2C[C@H](Cc2ccc(O)cc2)N2C[C@H](Cc3ccc(O)cc3)N(CC3CCCCCC3)C2=S)cc1 (stereo partly specified) | -8.9 | 4281
O=C1C2CCCCN2C(=O)N1CCN1CCN(c2cccc(Cl)c2)CC1 (stereo unspecified) | -25.4 | 3801
C#CCOCCOCCOCCNc1nc(N2CCN(C(=O)[C@H](CCCCN)n3cc(CC(C)O)nn3)CC2)nc(N2CCN(C(=O)[C@H](Cc3ccc(O)cc3)n3cc(CCO)nn3)CC2)n1 (stereo partly specified) | -18.2 | 3994
CC(C)C[C@@H](CNCC(=O)[C@H](C)NC(=O)c1[nH]cnc1C(=O)N[C@H](CN)CC(C)C)NC(=O)c1nc[nH]c1C(=O)N[C@@H](C)C(=O)O | -20.2 | 3743

Following part
smiles | PrP UTR inh | Autofluor counter
C[N+]1(C)C2CC[C@H]1CC(OC(=O)C(CO)c1ccccc1)C2 (stereo partly specified) | -22.6 | 5340
c1cc(SC2CCCCC2)cc(-c2nc3cnccn3c2NC2CCCCC2)c1 | 0.0 | 4373
COc1ccc(-n2c(N)cc(=O)nc2SCC(=O)NC2CCCCC2)cc1 | -7.2 | 6326
CC(=NNc1nc2ccccc2s1)c1ncccn1 | -4.2 | 5149
CCOC(=O)[C@@H]1[C@H]2COc3cc(OC)ccc3[C@H]2N2C(=O)N(c3ccc(Cl)cc3)C(=O)[C@]12C | -4.6 | 3134
CCOC(=O)[C@H]1[C@H]2COc3ccc(Cl)cc3[C@H]2N2C(=O)CNC(=O)[C@@]12C | -3.8 | 3713
CC(O)C1C=CC=CC(=O)OC2CC3OC4C5OC5(C)C(O)CC4(COC(=O)C(O)C(C)CCO1)C2(C)C31CO1 (stereo unspecified) | 70.1* | 3840
COc1cc(OC)nc(Oc2ccccc2C=O)n1 | -23.1 | 3493
COc1ccc(-c2sc3ccc(OC)cc3c2C#Cc2ccccn2)cc1 | -30.3 | 3440

Assay outcomes: PubChem, several laboratories
